Compound activity from PubChem BioAssay.
NOMO-1 viab = NOMO-1 AML cell viability reduction, primary screen, STK33 inhibitor project, CellTiter-Glo luminescence | NOMO-1 AML viability, 72 h | inhibition, % (test concentration not listed) | 37,000 tested, 7.5% active | AID 2330, 2010;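 active means most replicates above 80%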;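 further: wells of about 30 µL received 25 nL stock; 0% = median of vehicle wells and 100% = reference inhibitor level; the first replicate is given; inactives centre near 10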
Starred values were filed as active, the others as inactive. This is a subset. The share of hits here may be higher or lower than overall.

molecule	NOMO-1 viab
Cc1ccc(OCC(=O)Nc2ccc(-c3nc4ccccc4s3)c(O)c2)c(C)c1	28.1
C=C1[C@H](OC(=O)C(C)CC)[C@@H](OC(=O)C(C)C)[C@@H](O)C(C)(C)/C=C\[C@H](C)C(=O)[C@@]2(O)C[C@H](C)[C@H](O)[C@@H]2[C@H]1OC(=O)C(C)CC (some centres not stated)	60.4
C[C@H]1CN([C@@H](C)CO)C(=O)c2cc(N(C)C)ccc2O[C@@H]1CN(C)Cc1ccc(C(F)(F)F)cc1	41.1
C[C@@H]1CN([C@H](C)CO)C(=O)c2cccc(NC(=O)c3cnccn3)c2O[C@@H]1CN(C)S(C)(=O)=O	-5.8
Cc1ccc(S(=O)(=O)Nc2ccc3c(c2)CC(=O)N([C@H](C)CO)C[C@H](C)[C@H](CN(C)C(=O)NC2CCCCC2)O3)cc1	21.9
Cc1nc(SCC(N)=O)c2c(C)c(C)sc2n1	0.4
COC(=O)CN(c1cccc(C(C)=O)c1)S(C)(=O)=O	2.1
C[C@H]1CN([C@@H](C)CO)C(=O)Cc2cc(NS(=O)(=O)c3ccccc3)ccc2O[C@H]1CN(C)Cc1ccc(C(=O)O)cc1	-29.4
C[C@@H]1CN([C@H](C)CO)C(=O)Cc2cc(NC(=O)Nc3cccc4ccccc34)ccc2O[C@H]1CN(C)Cc1ccc(C(=O)Nc2ccccc2N)cc1	-19.5
CNC[C@@H]1Oc2c(NC(=O)c3nc4ccccc4s3)cccc2C(=O)N([C@@H](C)CO)C[C@H]1C	21.7
Cc1c2cc(-c3cccs3)sc2nc2c(O)cc(=O)[nH]c12	28.9
C[C@@H]1CN([C@H](C)CO)C(=O)c2cc(NS(=O)(=O)c3ccccc3)ccc2O[C@H]1CN(C)C(=O)Nc1ccccc1	0.6
Cc1ccc(-c2nnc3c4ccccc4c(C)nn23)cc1S(=O)(=O)NC1CCCCC1	33.0
Cc1ccc(S(=O)(=O)Nc2ccc3c(c2)CC(=O)N([C@H](C)CO)C[C@@H](C)[C@H](CN(C)C(=O)Nc2ccccc2)O3)cc1	-0.5
CCn1c(SCC(=O)Nc2ccc(Br)cc2C)nnc1-c1ccccc1F	3.9
Cc1ccc(-c2cc(C(=O)Nc3cc(C)nn3-c3ccccc3)no2)cc1	8.1
COc1ccc(S(=O)(=O)N(C)C[C@H]2Oc3ccc(NS(=O)(=O)c4cccs4)cc3C(=O)N([C@@H](C)CO)C[C@@H]2C)cc1	36.0
Cc1noc(C)c1NC(=O)Nc1cccc2c1O[C@H](CN(C)Cc1ccc(Oc3ccccc3)cc1)[C@H](C)CN([C@@H](C)CO)C2=O	21.0
Cc1noc(C)c1NC(=O)N(C)C[C@H]1Oc2ccc(NS(=O)(=O)c3ccc(Cl)cc3)cc2CC(=O)N([C@@H](C)CO)C[C@H]1C	-0.6
Cc1ccc(S(=O)(=O)Nc2ccc3c(c2)C(=O)N([C@H](C)CO)C[C@H](C)[C@@H](CN(C)Cc2ccc(C(F)(F)F)cc2)OCCCC[C@@H](C)O3)cc1	112.1*
COc1ccc(Oc2ccc(NC(=O)CCC(=O)O)cc2)cc1	-3.6
COc1ccc(NC(=O)Nc2ccc3c(c2)C(=O)N([C@H](C)CO)C[C@H](C)[C@H](CN(C)S(C)(=O)=O)OCCCC[C@@H](C)O3)cc1	10.7
COC(=O)C1=C(C)n2nnnc2NC1c1cc2ccccc2o1 (configuration not stated)	5.7
CCn1c(SCc2nc3ccccc3c(=O)[nH]2)nnc1-c1ccc(Cl)cc1	-13.2
Cc1cc(C(=O)Nc2cccc3c2O[C@H](CN(C)Cc2ccc4c(c2)OCO4)[C@H](C)CN([C@H](C)CO)C3=O)n(C)n1	-0.9
C[C@@H]1CCCCO[C@H](CN(C)C(=O)Nc2ccc(F)cc2)[C@@H](C)CN([C@H](C)CO)C(=O)c2cc(NC(=O)Nc3ccc(C(F)(F)F)cc3)ccc2O1	24.5
CCN1CCN(Cc2c(C)[nH]c3ccc(C(=O)OC)cc3c2=O)CC1	-7.8
Cc1noc(C)c1S(=O)(=O)Nc1cccc2c1O[C@H](CN(C)Cc1ccc(C(=O)O)cc1)[C@H](C)CN([C@H](C)CO)C2=O	2.8
COc1ccc(S(=O)(=O)N(C)C[C@H]2Oc3ccc(NC(=O)Nc4ccc(F)cc4)cc3C(=O)N([C@@H](C)CO)C[C@@H]2C)cc1	3.3
Cc1noc(C)c1S(=O)(=O)Nc1ccc2c(c1)C(=O)N([C@H](C)CO)C[C@H](C)[C@@H](CN(C)S(=O)(=O)c1ccccc1)OCCCC[C@@H](C)O2	29.3

For convenience, part of the list above.
molecule	NOMO-1 viab
COc1ccc(S(=O)(=O)N(C)C[C@H]2Oc3ccc(NC(=O)Nc4ccc(F)cc4)cc3C(=O)N([C@@H](C)CO)C[C@@H]2C)cc1	3.3
Cc1noc(C)c1S(=O)(=O)Nc1ccc2c(c1)C(=O)N([C@H](C)CO)C[C@H](C)[C@@H](CN(C)S(=O)(=O)c1ccccc1)OCCCC[C@@H](C)O2	29.3

2 compounds drawn at random from the list so far, as already listed:
molecule	NOMO-1 viab
COc1ccc(S(=O)(=O)N(C)C[C@H]2Oc3ccc(NC(=O)Nc4ccc(F)cc4)cc3C(=O)N([C@@H](C)CO)C[C@@H]2C)cc1	3.3
COC(=O)CN(c1cccc(C(C)=O)c1)S(C)(=O)=O	2.1

Next records
molecule	NOMO-1 viab
C[C@@H]1CN([C@@H](C)CO)C(=O)c2cc(NC(=O)Nc3ccccc3)ccc2O[C@@H]1CN(C)Cc1ccccc1	23.3
COc1cccc(CO)c1OCC(=O)Nc1ccc(F)cc1	-1.0
C/C1=C/CC(=O)[C@@H](C)C[C@H]2OC(=O)C(CO)=C2CC1	51.4
Cc1ccc(S(=O)(=O)N(C)C[C@@H]2Oc3c(NC(=O)c4cnccn4)cccc3C(=O)N([C@H](C)CO)C[C@H]2C)cc1	24.8
Cc1cc(C)c(S(=O)(=O)N(C)CC(=O)N2CCC(C(N)=O)CC2)c(C)c1	27.9
C[C@@H]1CN([C@@H](C)CO)C(=O)c2cc(NC(=O)Nc3cccc4ccccc34)ccc2O[C@@H]1CN(C)S(=O)(=O)c1cn(C)cn1	7.0
CNc1ccccc1C(=O)OC1OC(C)C(O)C(O)C1O (configuration not stated)	-4.3
COC(=O)c1ccccc1NC(=O)c1ccccc1N(C)S(=O)(=O)c1ccccc1	22.5
Cc1cc2c(=O)n(Cc3ccco3)c(SCc3cc(=O)[nH][nH]3)nc2s1	-1.7
CC(=O)c1c(C)n(CC(=O)O)c2ccccc12	-18.7
COC(=O)c1cc(NC(=O)CSc2nc(Nc3ccccc3)nc(N3CCOCC3)n2)ccc1Cl	117.5*
Cc1nc(-c2ccccc2)sc1C(=O)C1C(=O)C(=O)N(CCN2CCOCC2)C1c1ccccc1F (configuration not stated)	13.7
COc1ccc(NC(=O)Nc2cccc3c2O[C@H](CN(C)C(=O)Nc2ccc4c(c2)OCO4)[C@@H](C)CN([C@@H](C)CO)C3=O)cc1	-0.1
Cc1nc(SCC(=O)C(C)(C)C)[nH]c(=O)c1Cc1c(Cl)cccc1Cl	32.5
Cc1ccc(S(=O)(=O)N(C)C[C@@H]2Oc3ccc(NS(=O)(=O)c4ccccc4)cc3C(=O)N([C@@H](C)CO)C[C@@H]2C)cc1	13.4
CCOC(=O)c1c(C)cc(O)c(C)c1O	-18.4
C[C@@H]1CCCCO[C@H](CN(C)C(=O)C2CCCCC2)[C@@H](C)CN([C@H](C)CO)C(=O)c2cc(NC(=O)Nc3ccc(F)cc3)ccc2O1	27.0
COc1ccc(NC(=O)Nc2ccc3c(c2)C(=O)N([C@H](C)CO)C[C@H](C)[C@H](CN(C)Cc2ccncc2)O3)cc1	93.6*
C[C@H](CO)N1C[C@H](C)[C@H](CN(C)S(=O)(=O)c2ccc(Cl)cc2)Oc2ccc(NC(=O)Cc3ccccc3)cc2C1=O	-0.7
C[C@H](CO)N1C[C@H](C)[C@@H](CN(C)S(=O)(=O)c2ccccc2)Oc2c(NC(=O)Nc3ccc(C(F)(F)F)cc3)cccc2C1=O	34.3
CCOc1ccc(OCC(=O)Nc2sc3c(c2C(N)=O)CCC(C)C3)cc1 (configuration not stated)	3.1
Cc1cc(C(F)(F)F)nc(SCC(=O)Nc2ccc(I)cc2)c1C#N	1.6
C[C@H](CO)N1C[C@H](C)[C@H](CN(C)S(=O)(=O)c2cccs2)Oc2ccc(N(C)C)cc2C1=O	18.3
CCN(CC(=O)Nc1cccc(Cl)c1C)S(=O)(=O)c1ccc(OC)cc1	-2.6
COc1ccc(N2C(=O)CC(SCCc3nc4ccccc4[nH]3)C2=O)cc1 (configuration not stated)	-0.8
C[C@@H]1CN([C@H](C)CO)C(=O)c2cc(NC(=O)Cn3cnnn3)ccc2O[C@@H]1CN(C)S(=O)(=O)c1cn(C)cn1	-1.3
Cc1nc(Oc2ccc(NC(=O)c3ccccc3)cc2)c2c3c(sc2n1)CCC3	132.9*
Cc1ccc(NC(=O)CSc2nnc(-c3ccc(Cl)cc3Cl)n2-c2ccccc2)cc1	21.7
O=C(CSc1ccccn1)c1ccc(OCc2ccc(F)cc2)cc1	3.2
C[C@@H]1CN([C@H](C)CO)C(=O)c2cc(NC(=O)CCCCCC(=O)Nc3ccccc3N)ccc2O[C@@H]1CN(C)S(=O)(=O)c1ccc(Cl)cc1	53.5
COc1ccccc1NC(=O)CSc1nnnn1-c1cccc(C)c1C	30.2
C[C@@H]1CN([C@H](C)CO)C(=O)c2cc(NC(=O)NC3CCCCC3)ccc2O[C@@H]1CN(C)S(=O)(=O)c1ccc(F)cc1	20.5
CC(C)c1ccc(NC(=O)CSc2n[nH]c(-c3ccccc3Cl)n2)cc1	-2.9
C[C@@H]1CN([C@@H](C)CO)C(=O)c2cc(NC(=O)Nc3ccc(F)cc3)ccc2O[C@H]1CN(C)Cc1ccncc1	5.0
CC(C)NC(=O)Nc1ccc2c(c1)C(=O)N([C@H](C)CO)C[C@H](C)[C@@H](CN(C)C)OCCCC[C@@H](C)O2	5.0
CS(=O)(=O)N(CC(=O)NC1CCCC1)c1cc(Cl)c(Cl)cc1Cl	-20.9
COc1ccc(S(=O)(=O)NCc2ccco2)c2ccccc12	29.0
CCCC12CCC(c3ccc(C#N)cc3)(CC1)CC2	24.1
Nc1ccc(C(=O)OCc2nc3cc4ccccc4cc3[nH]2)cc1	-0.4
C[C@@H]1CN([C@H](C)CO)C(=O)c2cccc(NC(=O)Nc3ccc(F)cc3)c2O[C@@H]1CN(C)Cc1ccc(-c2ccccc2)cc1	82.1*
COc1cccc(NC(=O)CSc2nc(N)cc(N)n2)c1	8.9
COc1ccc(S(=O)(=O)N(C)CC(=O)Nc2ccc(C(N)=O)cc2)cc1C	-9.7
CC(=O)Nc1ccc(OCC(=O)Nc2ccc3c(c2)oc2ccccc23)cc1	-2.7
C[C@H]1CN([C@@H](C)CO)C(=O)c2cc(NC(=O)Nc3ccc(C(F)(F)F)cc3)ccc2O[C@@H]1CN(C)Cc1ccc2c(c1)OCO2	101.5*
C[C@H]1CN([C@@H](C)CO)C(=O)c2cccc(N(C)C)c2O[C@@H]1CN(C)S(=O)(=O)c1ccccc1	1.5
C[C@H](CO)N1C[C@H](C)[C@H](CN(C)Cc2ccccc2)Oc2c(NS(C)(=O)=O)cccc2C1=O	-3.6
C[C@H]1CN([C@@H](C)CO)C(=O)Cc2cc(NC(=O)NC3CCCCC3)ccc2O[C@@H]1CN(C)C(=O)Nc1cccc2ccccc12	12.1
C[C@H](CO)N1C[C@H](C)[C@@H](CN(C)S(=O)(=O)c2cn(C)cn2)Oc2ccc(NC(=O)C3CCCCC3)cc2C1=O	30.2
COc1cccc(CN2CCN(C(=O)c3cccs3)CC2)c1	1.9
Cc1ccc(N(CC(=O)Nc2c(C)cc(C)cc2C)S(C)(=O)=O)cc1	7.5
COc1ccc(CN(C)C[C@@H]2OCCCC[C@@H](C)Oc3ccc(NC(=O)C4CCCCC4)cc3C(=O)N([C@H](C)CO)C[C@@H]2C)cc1	-1.1
COc1ccc(S(=O)(=O)N(C)C[C@@H]2Oc3ccc(NS(=O)(=O)c4ccc(F)cc4)cc3C(=O)N([C@@H](C)CO)C[C@H]2C)cc1	20.6
C[C@@H]1CN([C@H](C)CO)C(=O)c2cccc(NS(=O)(=O)c3cn(C)cn3)c2O[C@@H]1CN(C)C(=O)Nc1ccc2c(c1)OCO2	12.4
C[C@H]1CN([C@@H](C)CO)C(=O)c2cc(NC(=O)CCCCCC(=O)Nc3ccccc3N)ccc2O[C@H]1CN(C)S(=O)(=O)c1cccs1	22.1
Cc1ccc(CNC(=O)Nc2ccccc2)n1C	42.3
CN(C)C(=O)CSc1nc2sc3c(c2c(=O)[nH]1)CCCC3	-24.8
C[C@@H]1CN([C@H](C)CO)C(=O)c2cc(N(C)C)ccc2O[C@@H]1CN(C)CC1CCCCC1	-10.2
NC1=NC(c2ccccc2)C(C(=O)c2ccccc2)N1 (configuration not stated)	18.6
Cc1ccc(S(=O)(=O)Nc2ccc3c(c2)C(=O)N([C@H](C)CO)C[C@H](C)[C@H](CN(C)S(=O)(=O)c2ccccc2)OCCCC[C@@H](C)O3)cc1	91.3*
Cc1ccc(C)c(NC(=O)Cn2cnc3ccccc3c2=O)c1	23.3

Continuation.
molecule	NOMO-1 viab
C[C@H](CO)N1C[C@H](C)[C@H](CN(C)Cc2ccc(C(F)(F)F)cc2)Oc2c(NS(=O)(=O)c3ccc(F)cc3)cccc2C1=O	1.6
C[C@@H]1CN([C@H](C)CO)C(=O)c2cc(NC(=O)CCCCCC(=O)Nc3ccccc3N)ccc2O[C@H]1CN(C)Cc1ccncc1	-28.3
CN(c1cccc(NC(=O)c2ccccc2N(C)S(=O)(=O)c2ccccc2)c1)S(C)(=O)=O	-2.2
CCn1c(=O)c2c3c(sc2n2c(SCC(=O)Nc4ccc(Cl)cc4)nnc12)CCCC3	-14.2
O=C(CN1C(=O)c2cccc3cccc1c23)Nc1ccc(S(=O)(=O)N2CCCCC2)cc1	13.1
